Screens (PubChem BioAssay)
UCH37 inh = blocks the human deubiquitinase UCH37 | 330,000 compounds, 0.33% hits | inhibition, % (no concentration beside the values) | Q9Y5K5 | purified proteasome/UCH37, Ub-AMC cleavage fluorescence;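 active = mean of two replicates above 20%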;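 also: 0% = compound-free wells with enzyme and 100% = wells lacking proteasome; stock transfer was 100 nL into about 20 µL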
Target sequence (Q9Y5K5 whole entry, looked up): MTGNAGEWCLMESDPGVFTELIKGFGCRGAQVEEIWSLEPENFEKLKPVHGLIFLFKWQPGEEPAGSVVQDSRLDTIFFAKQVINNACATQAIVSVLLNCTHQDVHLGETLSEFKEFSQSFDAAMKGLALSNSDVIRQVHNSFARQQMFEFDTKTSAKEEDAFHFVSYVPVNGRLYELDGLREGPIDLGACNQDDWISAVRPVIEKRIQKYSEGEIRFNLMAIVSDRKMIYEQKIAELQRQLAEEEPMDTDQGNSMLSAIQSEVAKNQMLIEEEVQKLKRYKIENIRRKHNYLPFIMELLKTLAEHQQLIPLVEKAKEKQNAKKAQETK
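System: Proteasome-associated human UCH37 deubiquitinase; Input: 0.15 nM proteasome in added enzyme buffer; Also added: Ub-AMC substrate from 1 µM stock; Incubation: 30 min compound-proteasome preincubation then 25 min substrate reaction, room temperature; Detection: fluorescence, ex 355 nm, em 460 nm; Read-out: % inhibition of Ub-AMC cleavage fluorescence; Benchmarks: no-proteasome and no-compound wells.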
LANA-H2A inh = blocks KSHV LANA binding to histone H2A/H2B. Q9QR71. cell-free LANA-H2A/H2B peptide, fluorescence polarization. inhibition, % (concentration not given with the values). 320,000 compounds, 0.6% hits. AID 2629; in the data active = inhibition mostly above about 10%, no sharp cut-off; inactive = mostly below about 6.7%;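 also: stock transfer was 7.5 nL into about 10 µL; 0% = median of vehicle wells and 100% = median of positive control wells; one replicate is shown; the record names a cut of 25% in any replicate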
Beta2AR agonist = human beta-2 adrenergic receptor agonism by FAP | response, % (test concentration not listed) | Am2.2-beta2AR cells, FAP receptor internalization, flow cytometry; reference of the scale not given here | AID 504454 | P07550 | 340,000 compounds, 0.43% hits;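 active = response above a set limit, near 3 SD of response in nonfluorescent compounds, cut at about 42% in these data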;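 also: stock transfer was 100 nL into about 11 µL; a reference agonist was the positive control; negative values mostly stem from fluorescent compounds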
Target sequence (P07550 whole entry, looked up): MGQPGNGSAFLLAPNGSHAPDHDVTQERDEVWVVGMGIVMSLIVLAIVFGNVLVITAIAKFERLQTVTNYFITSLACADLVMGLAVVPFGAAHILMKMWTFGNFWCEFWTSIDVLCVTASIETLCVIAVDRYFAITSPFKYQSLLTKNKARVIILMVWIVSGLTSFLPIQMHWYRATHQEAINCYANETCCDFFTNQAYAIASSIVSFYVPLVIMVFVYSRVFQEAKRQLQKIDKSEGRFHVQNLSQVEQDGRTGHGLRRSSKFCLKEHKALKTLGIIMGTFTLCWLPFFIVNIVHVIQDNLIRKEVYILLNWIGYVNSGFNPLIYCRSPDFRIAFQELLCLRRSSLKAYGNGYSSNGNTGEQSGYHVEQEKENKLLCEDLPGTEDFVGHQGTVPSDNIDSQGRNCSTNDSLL
Beta apoptosis = beta cell apoptosis inhibition; INS-1E cytokine-induced death, ATP luminescence, 48 h; percent of positive-control rescue, neutral wells zero; protection from apoptosis, % (concentration not given with the values); 300,000 compounds, 0.8% hits; AID 435005;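 active = all replicates at 75% or more, or half of them and the mean; inconclusive = half reach 75% but not the mean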;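 also: 0% = cytokine-treated negative control wells and 100% = positive control rescue; higher means more ATP so stronger rescue from cytokine killing; wells of about 40 µL received 100 nL stock; the first replicate is given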
T cruzi repl = T. cruzi replication inhibition; T. cruzi beta-gal in NIH3T3, luminescence, 90 h; inhibition, % (test concentration not listed); 300,000 compounds, 1.4% hits; AID 1885;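 active = mean inhibition across valid replicates above about 55%, limit read from the data; inconclusive = mean below that limit but half or more replicates reach it; inactive = mean below it, under half of replicates reach it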;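 also: signal also drops with host cell toxicity which is not excluded here; 0% = plate median of DMSO wells and 100% = zero luminescence signal; higher percent means less beta-gal luminescence so fewer parasites; stock transfer was 50 nL into about 50 µL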
Calb FLC = affects C. albicans growth with fluconazole; 300,000 compounds, 0.57% hits; AID 1979; C. albicans CaCi-2 (fluconazole-resistant clinical isolate) + fluconazole, Alamar Blue growth, 48 h; growth inhibition, % (no concentration beside the values);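 active = most replicates above 75%; inconclusive = exactly half above 75%; inactive = most below 75%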;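 also: all wells also contain fluconazole at 8 µg/ml as a sub-toxic cotreatment; 0% = median of DMSO wells and 100% = median of geldanamycin control wells; wells of about 8 µL received 7.5 nL stock; the first replicate is given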
A1 inh = inhibitors of the anti-apoptotic protein A1, read as caspase activation; MEF A1-2A-BIM cells, Caspase-Glo 3/7 luminescence, 3 h; percent of clofoctol response, vehicle zero; caspase activation, % (no concentration beside the values); 330,000 compounds, 0.066% hits;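 active = over half of replicate activation scores above 10%, or exactly half above 10 with the replicate mean above 10; inconclusive = replicate mean below 10 yet half the replicates above 10; inactive = over half of replicates below 10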;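 also: wells of about 30 µL received 50 nL stock; many hits fall short of the cut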
RanGTP-Impb inh = disruptors of Ran-importin-beta complex formation – biochemical, FRET, CFP-Ran, YFP-importin-beta, homogeneous, primary screen. cell-free CFP-Ran/YFP-importin-beta FRET ratio. inhibition, % (no concentration beside the values). 300,000 compounds, 1.1% hits;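 active = most replicates above 15%; inconclusive = exactly half above 15%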;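 also: 0% = DMSO wells and 100% = Ran loaded with GDP instead of GTP; wells of about 40 µL received 100 nL stock; the first replicate is given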
* hit, by the source's call; u = inconclusive; x = no result given. Random draw from the library; any-hit rate near 4.3%.

SMILES	UCH37 inh	LANA-H2A inh	Beta2AR agonist	Beta apoptosis	T cruzi repl	Calb FLC	A1 inh	RanGTP-Impb inh
Cc1ccc(C)c(S(=O)(=O)N2CCCOC2CNC(=O)C(=O)NCCCN2CCOCC2)c1 (configuration not stated)	2.2	-1.2	-2	x	-4	-3	0.9	2.7
COc1cccc(-n2nnnc2SCC(=O)c2ccc(NC(C)=O)cc2)c1	1.6	4.4	-4	0	1	-12	0.8	-3.0
CC(C)CNC(=O)c1cccc(NC(=O)c2ccc(NC(=O)c3ccco3)cc2)c1	-0.5	7.1	-19	4	-5	-5	-0.4	-4.8
O=C(NCC1CCCO1)c1cn(-c2ccccc2)nc1-c1ccc(F)cc1 (configuration not stated)	6.0	-3.9	-14	-3	10	20	1.5	-2.3
O=C1CCCCC1C(=O)c1cn(-c2ccc(Cl)c(Cl)c2)nn1 (configuration not stated)	4.8	0.8	1	7	7	52	-0.4	1.0
CCOc1cc(C(=O)OCC(=O)Nc2cccc(C)c2)ccc1OCC(=O)N1CCOCC1	x	25*	-4	-3	13	u	-0.5	-1.6
COc1ccc(Br)cc1S(=O)(=O)N(CC(=O)N1CCOCC1)c1ccccc1	0.5	11	0	x	-5	16	0.1	-2.0
Cc1c(CC(=O)O)c(=O)oc2c(C)c(OCc3nn[nH]n3)ccc12	-141	-2.2	4	-2	-11	-7	0.0	4.5
CCN(CC)CC(=O)N1c2ccccc2Sc2ccc(Cl)cc21	1.7	-3.3	-14	0	11	8	0.3	2.3
Cc1noc(C)c1S(=O)(=O)N(CC(=O)N1CCc2ccccc21)c1ccc(C(C)C)cc1	1.3	-0.7	0	14	32	1	-0.3	-4.3
CC(=O)Nc1ccc(NC(=O)c2c(C)nn(Cc3ccccc3)c2Cl)cc1	5.3	-4.0	2	-10	-11	1	0.1	3.8
C/C(=C\c1ccccc1)C(=O)NCCN1CCOCC1	2.7	-0.6	-3	-6	-17	16	-0.4	-1.6
Cc1noc(NS(=O)(=O)c2ccc(NC(=O)c3ccccc3NS(=O)(=O)c3ccc(F)cc3)cc2)c1C	-5.9	0.8	-2	-1	x	x	3.8	x
CCOC(=O)c1cc(S(=O)(=O)NC2CCCCC2)cn1C	0.6	6.2	23	-6	-15	-17	-0.1	-3.5
O=C(CN1CCN(C(=O)C2CCCO2)CC1)Nc1cc(C(F)(F)F)ccc1Cl (configuration not stated)	0.2	-3.3	-3	6	-3	x	-0.2	x
O=C(O)c1cc2[nH]c3c(c2cc1Cl)CCCC3	x	-1.1	-4	0	9	-1	-0.2	-7.3
O=C(CSc1n[nH]c(-c2ccccn2)n1)Nc1ccc(Cl)cc1	x	-1.7	0	10	47	1	0.5	27
COc1ccc(CN(C(=O)c2nsc(Cl)c2Cl)C(C(=O)NC2CCCC2)c2ccc(C)cc2)cc1 (configuration not stated)	0.5	4.1	5	8	43	27	-0.5	12
C=CCN(CC=C)C(=O)CN1C(=O)NC(C)(c2ccc3cc(OC)ccc3c2)C1=O (configuration not stated)	-1.3	-0.1	-9	1	-5	-4	-1.3	1.4
Cc1c(Cl)cccc1NC(=O)COC(=O)Cn1cnc2c1c(=O)n(C)c(=O)n2C	0.8	x	-6	3	x	x	0.8	x
Cc1cccc(CN2C(=O)[C@H]3Cc4c([nH]c5ccccc45)C(C)(C)N3C2=O)c1	3.0	-2.7	20	5	4	27	0.3	4.8
COc1ccc(-c2c(-c3cc(OC)cc(OC)c3)n(C)c3ccc(-c4ccn[nH]4)cc23)cc1	-21	7.3	10	-1	x	x	-0.3	x
Cc1nn(Cc2ccc(C(=O)Nc3ccc(C(=O)OC(C)C)cc3)o2)c(C)c1Cl	-4.5	-2.5	5	11	55*	14	-1.0	3.0
Cc1nn(-c2nc3ccccc3s2)c(N)c1-c1ccc(Cl)cc1	1.7	7.3	7	16	30	10	0.1	-3.5
CCOc1ccc(-n2nnnc2-c2nc3ccccc3s2)cc1	-4.8	-0.3	18	13	0	-1	0.2	-1.0

(listing goes on)
SMILES	UCH37 inh	LANA-H2A inh	Beta2AR agonist	Beta apoptosis	T cruzi repl	Calb FLC	A1 inh	RanGTP-Impb inh
CC1(C)Cc2c(sc3c2c(=N)n(Cc2ccco2)c(=O)n3CC(=O)Nc2ccccc2)CO1	0.7	-3.6	10	x	3	-2	-0.3	u
COc1ccc(C=C2C(=O)c3ccccc3C2=O)cc1O	6.8	-3.1	6	x	-17	0	-3.8	0.5
COC(=O)c1c(NC(=O)C(=O)N2CCOCC2)sc2c1CCCC2	-1.7	0.1	0	0	4	-3	-1.2	-0.3
COc1cccc(NC(=O)CCC(=O)N2CC(C)Oc3ccc(C)cc32)c1 (configuration not stated)	0.5	3.6	-1	0	4	-10	-0.2	-2.5
CCCS(=O)(=O)c1nc(S(=O)(=O)c2ccc(C)cc2)c(N2CCC(C(N)=O)CC2)s1	5.2	4.2	4	-1	-13	-4	0.9	-0.9
O=C(Nc1ccccc1Cl)c1ccc2nc(N3CCOCC3)sc2c1	2.5	-7.9	-4	-3	5	9	0.6	u
COc1ccc(OC)c(Nc2c3c(nc4ccccc24)CCC3)c1	4.5	2.2	14	14	59*	7	1.1	3.1
CCCCNC(=O)N1CCOCCOCCN(C(=O)NCCCC)CCOCCOCC1	2.2	4.4	-1	-12	9	5	0.9	3.0
C=C(C)CN(CC)c1ccc(N2C(=O)CCCC2=O)cc1[N+](=O)[O-]	7.4	-3.6	1	-8	0	-23	0.6	1.1
Cc1ccc(C)c(NS(=O)(=O)c2cc(C(=O)Nc3ccccc3-c3ccccc3)ccc2C)c1	2.8	-2.6	-6	23	26	2	0.3	-3.0
COc1ccc([N+](=O)[O-])cc1N(CC(O)CN(CC(C)C)CC(C)C)S(=O)(=O)c1ccc(C)cc1 (configuration not stated)	2.1	1.5	2	8	u	4	0.0	-2.0
Cc1cccc(C)c1NC(=O)NCc1ccco1	4.4	-2.3	5	-8	-10	-3	u	-1.7
COc1ccc(/C=C(\C#N)C(=O)OCC(=O)Nc2c(C)cccc2C(C)C)cc1	-4.9	1.9	5	x	6	-5	-0.7	-0.3
CC1CN(C(=O)CN2C(=O)c3ccccc3S2(=O)=O)CC(C)O1 (configuration not stated)	-1.9	2.1	4	-4	4	2	0.4	4.4
CN(C)S(=O)(=O)N1CCC(Oc2ccc(C(=O)NC3Cc4ccccc4C3)cc2)CC1	0.6	0.9	9	14	-10	-11	-2.3	-1.1
NS(=O)(=O)c1cccc(NS(=O)(=O)c2ccc3ccccc3c2)c1	2.9	1.3	-2	0	1	8	0.7	-2.2
CC(C)c1nc2cc(C(=O)N3CCNC(=O)C3c3cccc(F)c3)ccc2o1 (configuration not stated)	4.2	0.4	-9	0	-6	4	-1.1	-1.7
COc1ccc(CC(=O)N2CCN(c3ccccc3)CC2)cc1OC	2.0	0.2	7	x	3	-6	1.1	4.1
O=C(NCc1ccco1)c1cc(S(=O)(=O)NC2CC2)ccc1Br	3.8	-0.3	-5	-7	x	x	-0.4	x
CCOC(=O)C1(CC2CC2)CCN(Cc2ccc(C(=O)OC)cc2)CC1	5.2	-7.5	-4	6	9	-13	0.2	2.1
Cc1ccc2cc(/C=N/NC(=O)c3ccccc3[N+](=O)[O-])c(Cl)nc2c1	x	0.5	7	x	7	-23	-0.5	-4.1
O=C(CSc1ncnc2c1cnn2-c1ccccc1)Nc1ccccc1	0.0	1.5	-3	2	-2	5	-3.2	1.5
CC(C)NC(=O)C(=O)NNC(=O)C12CC3CC(CC(C3)C1)C2	3.3	-4.3	-2	-9	-3	11	-0.7	-0.6
CC1(C)Cc2c(cnn2-c2ccccc2)C(NC(=O)c2ccoc2)C1 (configuration not stated)	0.2	-3.5	-5	3	-5	17	0.6	u
COc1cccc(OCCOCC(O)CN2CCN(Cc3ccc(Cl)cc3)CC2)c1 (configuration not stated)	4.2	3.5	0	-5	26	-4	0.5	-0.9

Remaining list, next part.
SMILES	UCH37 inh	LANA-H2A inh	Beta2AR agonist	Beta apoptosis	T cruzi repl	Calb FLC	A1 inh	RanGTP-Impb inh
O=c1[nH]c2ccccc2n2cnnc12	x	-6.6	-7	2	-9	-9	0.7	2.7
COc1ccc(NC(=O)CN2CCN(C3c4ccccc4-c4ccccc43)CC2)cc1	2.5	-4.3	-10	-3	5	3	-0.3	1.2
Cc1cc(=O)oc(C)c1C(=O)Nc1ccccc1F	4.7	-0.8	-2	-4	-26	7	1.0	4.2
O=C(c1ccccc1SCc1ccccc1)N1CCCCCC1	0.4	5.0	6	3	11	11	-0.2	-2.8
O=C(CSc1ncnc2sc3c(c12)CCCCC3)NCc1ccco1	-1.3	-3.5	3	-2	1	-3	-0.9	2.1
O=C(CNC(=O)c1ccco1)Nc1cc(Cl)ccc1N1CCOCC1	4.0	13	0	1	-7	4	-0.3	-5.0
CCOC(=O)c1sc2nc(CSc3ccccc3)nc(N3CCC(C(N)=O)CC3)c2c1C	-5.8	-6.6	6	-4	59*	13	0.4	5.6
Clc1ccc(Cn2nnc(-c3ccc(CN4CCOCC4)cc3)n2)cc1	0.3	-2.9	-7	-1	7	-9	-0.5	0.6
CCOc1ccc(C(=O)COC(=O)c2cccc(-n3cnnn3)c2)cc1	x	0.7	3	1	4	4	0.0	-4.5
CCOC(=O)c1c(C)oc2c1C(=O)c1ccccc1C2=O	28*	1.5	6	84*	-11	x	-0.1	x
O=C(COC(=O)C1CC1)Nc1ccc([N+](=O)[O-])cc1C(F)(F)F	5.6	-3.4	-1	3	x	x	-0.9	x
CCCN(CC(=O)Nc1ccccc1C)C(=O)c1ccc(S(=O)(=O)N2CCCCCC2)cc1	4.3	5.1	-4	-2	5	19	0.2	0.1
COc1ccc(/C=C/C(=O)O)cc1S(=O)(=O)NCc1ccccc1	1.1	1.8	-3	-6	-5	8	0.4	4.4
COc1ccc(N/C(N)=N/c2nc(CSc3ccc(C)cc3)cc(=O)[nH]2)cc1	1.7	0.7	2	-2	-12	-13	-0.4	5.4
COC(=O)CCC(=O)NC(=S)Nc1ccccc1F	4.5	1.6	14	-9	2	-5	0.2	-4.1
CCn1c(Cc2ccccc2)nnc1SCC(=O)NC1CC1	1.9	0.4	-3	-7	-12	14	0.5	-1.4
COC(=O)c1ccc(NC(=O)CN2CCCC2)cc1	4.7	0.9	5	-10	9	-8	0.6	u
O=C(c1cnc2n(c1=O)CCS2)N1CCN(C(c2ccccc2)c2ccc(Cl)cc2)CC1 (configuration not stated)	5.0	0.3	2	2	18	-5	1.7	-3.9
CSCCC(NC(=O)c1ccco1)C(=O)NCc1ccc(F)cc1 (configuration not stated)	3.3	-1.3	-3	2	-22	-8	0.3	6.5
O=S(=O)([N-]c1nc2ccccc2nc1-n1cc[n+](Cc2ccccc2)c1)c1ccc(Br)cc1	-59	6.9	2	1	8	-2	0.0	8.2
Cc1cc(C)c2nc(-c3ccccn3)cc(C(=O)NCc3cc(C)n(C)n3)c2c1	5.0	0.7	3	10	0	13	0.4	3.3
